# Screening results (PubChem BioAssay)
# gsp antagonist – qHTS for Antagonists of gsp, the Etiologic Mutation Responsible for Fibrous Dysplasia/McCune-Albright Syndrome: qHTS. hit rate 0.4% among 340,000. Potency, µM (series often up to 76.9 µM), without a hit: top-dose activity change, negative = inhibition, usual class: inhibitors. AID 624288, 2012. gsp-mutant cells, cAMP HTRF, 30 min; control for the full effect not named in the record; active = falling curve of any shape with a large fitted effect; inconclusive = falling curve, mostly with a smaller effect; inactive = flat or rising curve; cell line not stated here;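 also: intracellular cAMP measured with PDE inhibitor Ro 20-1724 present during compound exposure; potency is read from the fitted curve at half-maximal effect; % is scaled to controls: 0 for no effect and ±100 for the full control effect; nearly all actives have a fitted effect of over 65% in size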
#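 Cells, 2000/well, grown 16–24 h in DMEM 10% FBS with 0.5 mg/ml G418, then compounds plus […] (300 uM addition stock), 30 min at 37C. cAMP read by HTRF (cAMP-d2 and anti-cAMP antibody-K in lysis buffer) after 30 min RT.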
# TRPML1 agonist – qHTS for Agonists of the Human Mucolipin Transient Receptor Potential 1 (TRPML1); TRPML1-expressing cells, Ca2+ dye fluorescence, FDSS; host cell line not named in the record; reference of the full effect not given here; hit rate 0.12% among 410,000; activation, % (no concentration beside the values); in the data active = activation above about 50%; inconclusive = about 30% to 50%; inactive = below about 30%; also: 0% is about no effect; the text of the record puts the active cut at 80%
# Target sequence (Q9GZU1 whole entry, looked up): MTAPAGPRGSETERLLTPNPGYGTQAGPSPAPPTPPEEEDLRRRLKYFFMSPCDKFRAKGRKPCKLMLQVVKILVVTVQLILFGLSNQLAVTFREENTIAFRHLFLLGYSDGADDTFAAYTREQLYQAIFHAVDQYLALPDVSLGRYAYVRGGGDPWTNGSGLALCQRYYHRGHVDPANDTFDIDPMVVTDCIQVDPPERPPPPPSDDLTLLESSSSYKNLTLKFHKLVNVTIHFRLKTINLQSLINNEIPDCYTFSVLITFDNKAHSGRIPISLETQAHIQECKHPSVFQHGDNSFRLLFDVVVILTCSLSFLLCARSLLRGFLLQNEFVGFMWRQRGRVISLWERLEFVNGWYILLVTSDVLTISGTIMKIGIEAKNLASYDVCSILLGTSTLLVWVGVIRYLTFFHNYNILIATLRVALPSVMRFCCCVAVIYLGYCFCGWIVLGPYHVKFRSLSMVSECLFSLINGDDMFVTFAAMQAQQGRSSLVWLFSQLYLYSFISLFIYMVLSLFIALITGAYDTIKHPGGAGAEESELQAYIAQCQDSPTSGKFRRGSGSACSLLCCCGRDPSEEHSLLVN
#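 Calcium fluorescence on an FDSS kinetic reader gave the read-out. Tet-induced TRPML1-DL cells were plated overnight, dye-loaded (Ca8 with quencher, 45-90 min, room temperature, dark), then read 110 s after compound addition, and again 110 s after 4uM final 54-4 (EC80).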
# gsp ag – qHTS for Agonist of gsp, the Etiologic Mutation Responsible for Fibrous Dysplasia/McCune-Albright Syndrome: qHTS. gsp mutant cells, cAMP HTRF, 30 min; control for the full effect not named in the record. Potency, µM (top dose mostly 76.9 µM), for inactives: top-dose activation (cAMP increase), actives largely listed as activators. hit rate 0.13% among 340,000; active = well fitted activation curve with a large enough effect; inconclusive = small, poorly fitted or top-dose-only effect, or another doubt; inactive = no such curve, though single readings can be large or run the other way; cell line not stated here;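 also: phosphodiesterase inhibitor Ro 20-1724 added with compounds to block cAMP breakdown; potency is read from the fitted curve at half-maximal effect; nearly all actives have a fitted effect of over 60% in size; about a fifth of the inactives were tested at one dose only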
#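 Cells stably selected in G418 were plated at 2000/well, grown 16-24 hr, then given compounds in DMSO with the PDE inhibitor […] (300 uM solution added) for 30 min at 37C; cAMP was read by HTRF.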
# TRPML1 inh – qHTS for Inhibitors of the Human Mucolipin Transient Receptor Potential 1 (TRPML1); activity change, negative = inhibition, % (concentration not given with the values); TRPML1-inducible cells, Ca2+ dye fluorescence, FDSS; stronger effect = lower value; inhibition of EC80 agonist-evoked calcium signal; hit rate 0.02% among 390,000; Mucolipin-1 (Homo sapiens), Q9GZU1; in the data active means activity change below about -50%; inconclusive means about -30% to -50%; inactive means above about -30%;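 also: stimulus is agonist 54-4 at its EC80 concentration; % is scaled to controls: 0 for no effect and ±100 for the full control effect; compound concentration not given in the record; the text of the record puts the active cut at -80%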
#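 TRPML1-DL cells, Tet-induced overnight (~16 h, 37 °C) at 1,500 cells/well, were loaded with Ca8 no-wash dye plus quencher for 45-90 min at room temperature. Compounds were pinned during FDSS kinetic reading; agonist 54-4 at EC80 (4 uM final) then added.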
# Menin MLL FP FL – qHTS Assay for Inhibitors Targeting the Menin-MLL Interaction in MLL Related Leukemias: Competition With Fluorescein Labeled MLL-derived Peptide; AID 1766, 2009; 290,000 tested, under 10 active; FP activity change, % at 61.4 µM; Fluorescence polarization, fluorescein-MLL peptide displacement from menin; inconclusive = falling polarisation curve, or a change in total fluorescence; inactive = total fluorescence flat and polarisation flat or rising; no compound was filed as active; the % refers to the polarisation; negative = inhibition;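 also: % of control where 0% means no effect; inhibitors lower the polarisation; unlabelled MLL peptide was the positive control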
# ClpP mod – qHTS Assay for Activators of ClpP. AID 651965, 2013. purified B. subtilis ClpP, FRET peptide cleavage, 20 min. hit rate 1.9% among 340,000. Potency, µM (series often up to 57.5 µM), for the others: top-dose activity change, negative = active. ATP-dependent Clp protease proteolytic subunit (Bacillus subtilis (strain 168)), P80244; active = well fitted falling curve with a large enough effect; inconclusive = small, poorly fitted or top-dose-only effect; inactive = no such curve, though single readings can be large or run the other way; also: potency is read from the fitted curve at half-maximal effect; the source files actives as falling curves though it sought activators and does not explain the sign; nearly all actives have a fitted effect of over 65% in size; many hits overshoot -100%
# Target sequence (P80244 whole entry, looked up): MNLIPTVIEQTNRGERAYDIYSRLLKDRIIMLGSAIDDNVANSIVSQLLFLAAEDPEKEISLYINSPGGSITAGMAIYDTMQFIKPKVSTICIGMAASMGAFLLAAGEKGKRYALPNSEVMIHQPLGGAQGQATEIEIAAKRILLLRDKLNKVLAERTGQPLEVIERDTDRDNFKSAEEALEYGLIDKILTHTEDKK
#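 ClpP 10 microg/mL final, pH 8 Tris/KCl buffer with BSA, glycerol, Tween-20; compound pinned in; FRET-FV substrate; RT 20 min; Ex320/Em430; ΔFRET vs ADEP 5.8 microM, DMSO, no enzyme.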
# * marks the source's active call; other numbers are inactive results; ? = inconclusive; . = no result given; & = joins results of further samples; [ ] = another dose, or the depositor's remark.
SMILES,gsp antagonist,TRPML1 agonist,gsp ag,TRPML1 inh,Menin MLL FP FL,ClpP mod
CN(C)CCCNC(=O)CCC1CCCCC1,7%,-1.0,2%,7,12,0.6%
CCCN(CCC)C(=O)CC(c1ccccc1)c1cc(C)ccc1O (configuration not stated),-7%,2.0,18%,6,-0.3,0.6%
Cc1ccc(CNC(=O)Cn2c(=O)oc3ccccc32)o1,0%,0.0,2%,0,2.6,-2.5%
COc1ccc([N+](=O)[O-])cc1COc1cc(C)cc2oc(=O)cc(-c3ccccc3)c12,9%,0.2,-31%[inhibitor],0,4.6,-13%
Nc1ncnc(N2CCc3ccccc32)c1[N+](=O)[O-],11%,0.3,-4%[15.4 µM],4,1.0,0.9%
CC(C(=O)N1CCN(c2ccccc2F)CC1)c1ccc([N+](=O)[O-])cc1 (configuration not stated),5%,0.5,-91%[inhibitor],-10,-1.5,.
COc1cc(C(=O)OCC(=O)NC2CCCCCC2)ccc1OCC(C)C,13%,2.8,-4%,-3,.,-1.9%
COc1ccc(S(=O)(=O)N2CCOC23CCN(S(=O)(=O)c2c(C)cc(C)cc2C)CC3)cc1,0%,2.8,-13%[15.4 µM],73,.,.
CC1(C)CC(=O)/C(=N/Nc2ccc(Cl)cc2)CO1,-2%,0.7,-29%,-20,3.2,0.4%
CCN(CC)S(=O)(=O)c1ccc2oc(C(=O)NCc3ccccc3OC)c(C)c2c1,.,0.8,.,-7,.,-0.9%
O=C(NCc1ccccc1Cl)c1ccccc1Oc1ccccc1,-29%,1.8,-4%,42,-0.2,0.7%
Cc1ccc(NC(=O)CSc2nc(=O)n(Cc3ccncc3)c3c2CCC3)c(C)c1,-17%,-0.3,-9%[15.4 µM],-10,.,-6.9%
O=C(COc1ccc2ccccc2c1)N[C@@H](C(=O)O)c1ccc(O)cc1,-4%,-0.1,6%,1,4.6,0.3%
COc1ccccc1N1CCN(C(=O)c2cc(-c3ccc(F)cc3)[nH]c2C)CC1,-16%,.,?,.,-13,-4.3%
O=C(COC(=O)Cc1c(Cl)cccc1Cl)NCc1ccccc1,.,0.0,-55%[inhibitor],9,.,0.8%
CCn1c2ccccc2c2c3ncc4cccn4c3ccc21,-12%,0.7,-20%[15.4 µM],-2,?,.
CN(C)S(=O)(=O)c1ccc2c(c1)C(CC(=O)O)OC2=O (configuration not stated),7%,5.8,14%,37,-6.9,0.3%
CCOc1ccccc1N1CCN(C(=O)c2cc(S(=O)(=O)N3CCCCC3)ccc2C)CC1,?,-0.5,9%,3,.,0.9%
Cc1ccc(S(=O)(=O)Cc2cc(-c3ccc(Cl)cc3)no2)cc1,-13%,4.0,1%,-10,0.3,-1.5%
CCc1nn(CC(=O)NCCCc2ccccc2)c(=O)c2cc3c(OC)cccc3n12,7%,3.1&-0.6,10%,19&2,0.5,?
c1ccc(Oc2cc(-c3ccccc3)nc(-c3ccccc3)n2)cc1,4%,1.9,-3%,23,6.9,-3.8%
COC(CNC(=O)[C@H](Cc1ccccc1)N1Cc2ccccc2C1=O)OC,1%,0.1,?,8,-0.8,0.0%
CCS(=O)(=O)c1ncc(N(Cc2ccco2)Cc2ccccc2F)c(C(=O)Nc2cccc(Cl)c2)n1,.,1.0,.,39,.,-2.6%
O=C(NC1CCN(Cc2ccccc2)CC1)c1cccc(Br)c1,-15%,-0.4,-5%[15.4 µM],15,-1.5,0.9%
COc1ccc(C(=O)N(CC(=O)NC(C)(C)C)c2ccc3c(c2)OCCO3)cc1OC,-2%,0.0,10%,-1,-4.0,1.6%
O=S(=O)(c1ccc2ccccc2c1)N1CCN=C1SCc1cccnc1,0%,1.3,-46%[inhibitor],-4,0.4,-0.1%
Cc1ccc(CN2C(=O)c3ccccc3Sc3ccc(C(=O)NCCCN4CCOCC4)cc32)cc1,15%,-0.1&6.1,-12%,-20&12,-1.9,0.6%&-0.1%
CC(=O)c1cccc(NC(=O)c2cc(-c3ccco3)nc3ccccc23)c1,-18%,-0.5,-32%[15.4 µM],55,0.8,.
CN1CCN(C(CNC(=O)C(=O)Nc2ccc(Cl)cc2)c2cccnc2)CC1 (configuration not stated),.,0.3,.,6,.,0.1%
CCOC(=O)n1c(=O)n(C)c2ccc(Br)cc21,1%,0.0,37%[15.4 µM],9,0.5,.

# Complete entries, quoted from the list.
# CN(C)S(=O)(=O)c1ccc2c(c1)C(CC(=O)O)OC2=O (configuration not stated) is entered as gsp antagonist = 7%; TRPML1 agonist = 5.8; gsp ag = 14%; TRPML1 inh = 37; Menin MLL FP FL = -6.9; ClpP mod = 0.3%
# O=C(NC1CCN(Cc2ccccc2)CC1)c1cccc(Br)c1 is entered as gsp antagonist = -15%; TRPML1 agonist = -0.4; gsp ag = -5%[15.4 µM]; TRPML1 inh = 15; Menin MLL FP FL = -1.5; ClpP mod = 0.9%

# New compounds follow:
SMILES,gsp antagonist,TRPML1 agonist,gsp ag,TRPML1 inh,Menin MLL FP FL,ClpP mod
CCn1c(NC(=O)c2ccccc2F)c(-c2cccs2)c(=O)c2ccccc21,-3%,4.8,-25%,31,5.0,0.4%
COc1cccc(/C=N/NC(=O)c2oc3nc(-c4ccccc4)cc(-c4ccco4)c3c2N)c1,-7%,2.9,37%,13,?,.
COC(=O)c1ccc(C(=O)N2CCCC(CNC(=O)c3ccc(F)cc3)C2)cc1 (configuration not stated),15%,0.4,?,0,4.6,-1.6%
CC(=O)c1cccc(N2C(=O)CC(N3CCN(S(=O)(=O)c4ccc(Cl)cc4)CC3)C2=O)c1 (configuration not stated),8%,-0.4,17%,8,.,0.2%
CC1CCCC(NC(=O)CCn2c(=O)oc3ccccc32)C1C (configuration not stated),-3%,-0.7,-34%[inhibitor],-2,-1.3,0.3%
OCC[C@H]1C[C@@H](O)[C@H](O)[C@]2(Cc3ccccc3CO2)O1,11%,-0.2,.,22,.,2.3%
COc1ccc2c(Cl)c(-c3nnco3)sc2c1,9%,-1.0,12%,12,0.7,-4.3%
CC(=O)/C(=N\Nc1cccc(Cl)c1)Sc1nnc(-c2ccccc2)n1-c1ccccc1,-17%,0.6,-4%,4,-3.3,1.7%
CN1CCN(/C(=N\O)c2nonc2N)CC1,18%,2.0,25%,26,5.4,0.7%
CCc1ccc(S(=O)(=O)c2cn(Cc3ccccc3F)c3cc(OC)c(OC)cc3c2=O)cc1,.,1.0,.,-22,.,?
COc1ccc(NC(=O)CC2Nc3cccc4cccc(c34)NC2=O)cc1 (configuration not stated),-29%,2.0&0.1,-133%[inhibitor],21&-1,-2.6,-4.5%&-1.4%
CCNC(=O)CCC(=O)Nc1cc(Cl)ccc1C,13%,-0.2,10%,11,-1.6,0.2%
CCCCNc1nc2c(c(=O)n(C)c(=O)n2C)n1CCC,1%,-0.7,?,-5,-3.7,1.3%
CC(C)c1c(C(=O)N/N=C/c2cccc(OCc3ccccc3)c2)nnn1-c1nonc1N,?,1.9,?,32,.,.
COC(=O)Cc1c(C)nc2nc(-c3ccc(Cl)cc3)[nH]n2c1=O,-7%,-0.8,-1%,12,4.0,-24%
COc1cc(C(=O)NC(=S)NNC(=O)c2cnccn2)cc(OC)c1OC,-5%,-0.9,-48%[inhibitor],-3,.,-1.8%
CN(CC(=O)N1CCN(c2ccc(F)cc2)CC1)S(=O)(=O)c1ccc(F)cc1,5%,-0.2,?,2,7.1,0.3%
OCCNc1nc(Nc2ccccc2)nc2ccccc12,-14%,-0.4,6%,1,-0.7,-15%
COc1ccc(Nc2ncc(C(=O)N3CCN(c4cccc(Cl)c4)CC3)c3ccccc23)cc1,.,0.0,.,-7,.,?
Cc1ccc(CNC(=O)CSc2nc3n[nH]c(C)c3c(=N)n2-c2ccccc2Cl)cc1,.,2.9,.,-8,.,-0.1%
CCOC(=O)c1nc(-c2ccc(OC)c(OC)c2)no1,3%,-0.6,-7%,-3,-0.9,.
CCc1c(O)nc(SCC(=O)Nc2ccccc2C)[nH]c1=O,8%,-0.1,0%,-4,4.5,-1.0%
COc1ccc(N2CCN(S(=O)(=O)c3ccc(-c4cc(C)no4)s3)CC2)cc1,-11%,-0.8,29%,-16,-6.4,-2.4%
Cc1ccc(S(=O)(=O)N2CCCN(Cc3nc4ccccc4c(=O)[nH]3)CC2)cc1,-6%,1.8,16%,0,.,-1.9%
CCN(CC)C(=O)c1sc(NC(=O)c2ccc3c(c2)OCO3)c(C#N)c1C,-9%,1.3,-53%[inhibitor],-8,1.9,-0.7%
O=C1NCCN1C(=O)c1ccco1,11%,0.3,11%,1,-1.6,?
COc1ccccc1C1CCCN1Cc1nc(-c2cc3c(cc2Cl)OCO3)oc1C (configuration not stated),6%,0.1,3%,-3,10,-4.4%
COC(=O)c1ccccc1NC(=O)c1ccc2c(c1)CC(C)O2 (configuration not stated),-18%,0.6,5%[15.4 µM],2,-3.7,-0.3%
CSCCC1NC(=O)N(C(C)C(=O)Nc2cc(Cl)cc(Cl)c2)C1=O (configuration not stated),-20%,-0.1,23%[15.4 µM],35,11,1.0%
COCCNC(=O)CN(CC1CCCO1)C(=O)CCC(=O)Nc1ccccn1 (configuration not stated),8%,-0.2,-3%,20,0.2,-1.0%
CC12CCC(=O)N1C(C(=O)N1CCN(c3cccc(Cl)c3)CC1)CS2 (configuration not stated),5%,3.0,3%,21,.,0.4%
O=C(O)CCc1nn2cc(-c3ccccc3)nc2[nH]c1=O,15%,0.1,?,14,1.6,-28%
C/C(=N\Nc1ccc(Cl)cc1)c1ccncc1,1%,-1.5,-3%[15.4 µM],-15,2.3,0.3%
Cc1ccc(NC(=O)CSCC(=O)NNC(=O)c2ccoc2C)cc1,13%,-0.6,-16%[15.4 µM],6,.,-16%
O=C(CCN1C(=O)[C@@H]2Cc3ccccc3CN2C1=O)NCc1ccccc1,-9%,1.2,17%,-2,.,0.9%
CC(C)N(C(=O)CSc1nc2ccccc2n1-c1ccccc1)C(C)C,-16%,1.3,?,54,0.6,1.1%
COc1ccc(NC(=O)c2cc(-c3ccco3)on2)cc1OC,3%,0.3,-18%[15.4 µM],10,?,.
Cc1ccc(S(=O)(=O)NCC(=O)OCC(=O)c2c(N)n(C)c(=O)n(C)c2=O)cc1,-5%,1.1,?,-5,6.7,1.7%
COc1ccc(Cc2nc(-c3cccs3)no2)cc1,5%,1.2,5%,-21,0.2,0.1%
COc1ccc(N(CC(=O)NCc2ccco2)C(=O)CNS(=O)(=O)c2ccc(Cl)cc2)cc1,-31%,-1.4,-3%[15.4 µM],-7,-2.2,0.6%
